SARS PLP yeast: blocks SARS-CoV papain-like protease in a yeast assay; hit rate 0.19% among 330,000; Potency, µM (doses to about 32.9 µM), inactives show at the highest dose activity, positive = growth rescue; S. cerevisiae expressing SARS-CoV PLpro, growth rescue; control for the full effect not named in the record; AID 485353; active means well fitted rising curve with a large enough effect; inconclusive means small, poorly fitted or top-dose-only effect; inactive means no such curve, though single readings can be large or run the other way; further: 0% is about no effect; nearly all actives have a fitted effect of over 55% in size; growth read by luminescence after 48 h
RE007 growth inh: less growth of the S. pombe RE007 Vpr strain. S. pombe RE007 Vpr strain, BacTiter-Glo ATP luminescence, 24 h; control for the full effect not named in the record. hit rate 0.21% among 360,000. Potency, µM (highest dose often 92.2 µM), for the others: top-dose activity change, negative = less growth; active = well fitted falling curve with a large enough effect; inconclusive = small, poorly fitted or top-dose-only effect; inactive = no such curve, though single readings can be large or run the other way;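 further: on the % scale 0 is the no-effect control and ±100 the full control effect; nearly all actives have a fitted effect of over 50% in size; the assay follows cell death caused by Vpr and the record does not say whether a fall means rescue or toxicity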
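Fission yeast RE007 carrying one integrated HIV-1 vpr copy, seeded at OD 0.01 in PMG+AL medium with 23 nL pinned compound. Grown 24 h at 30 degrees; viability read by BacTiter-Glo luminescence after 5 min.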
StopGo reporter: lowers the luciferase signal of an FMDV 2A StopGo reporter; human cells with a luciferase reporter of 2A StopGo recoding; control for the full effect not named in the record; Potency, µM (doses to about 57.9 µM), without a hit: top-dose signal change, negative = less light; hit rate 1.2% among 410,000; AID 1159524; active = well fitted falling curve with a large enough effect; inconclusive = small, poorly fitted or top-dose-only effect; inactive = no such curve, though single readings can be large or run the other way; tested in HEK293T cells; further: on the % scale 0 is the no-effect control and ±100 the full control effect; nearly all actives have a fitted effect of over 45% in size; luciferase light after 4 h
Active calls of the source: *; ? = inconclusive; [ ] = another dose, or the depositor's remark. Potency means the concentration at half of the fitted maximal effect. This is a subset; rates above refer to the full screens.

Under each structure – SARS PLP yeast	RE007 growth inh	StopGo reporter
Cc1ccc2c(c1)C1C[N+](C)(CC(=O)c3ccc(Cl)cc3Cl)CCC1N2C(=O)c1ccc(F)cc1 (stereo not given)
  -1%	5%	38%[activator]
COc1ccccc1/C=N/NC(=O)CC(=O)NC1CCCCC1
  2%	1%	0%
COCCn1c(SCC(=O)Nc2cccnc2Cl)nc2ccccc21
  -2%	3%	-22%
CC(C)(C)OC(=O)C[C@H]1C/C=C\C[C@H](CC(=O)N(CCO)Cc2ccccc2)C(=O)N[C@@H](c2ccccc2)COC1=O
  -4%	12%	-15%
COc1ccccc1CCNC(=O)c1ccccc1SCC(=O)N1CCCC1
  3%	-6%	-8%
COc1ccc(NC(=O)N(C)C[C@H]2Oc3c(NC(=O)NC4CCCCC4)cccc3C(=O)N([C@H](C)CO)C[C@@H]2C)cc1
  -3%	13%	7%
COc1ccc(-c2csc(N(CC3CCCO3)C(=O)c3ccccc3)n2)cc1 (stereo not given)
  -1%	8%	0%
C/C(CC(=O)N(C(C)C)C(C)C)=N\NC(=O)COc1ccc(Cl)cc1Cl
  2%	-18%	-30%
CC(=O)c1ccc(NC(=S)NCc2ccc(Cl)cc2Cl)cc1
  0%	4%	38%[activator]
O=C(NCC(c1ccco1)N1CCCC1)c1cc2ccccc2s1 (stereo not given)
  7%[6.58 µM]	-13%	-3%
C=CC[C@H](CC(=O)N(CCO)Cc1ccccc1)C(=O)NC[C@@H](OC(=O)[C@@H](CC=C)Cc1ccc(F)cc1)c1ccccc1
  -46%	4%	?
Cc1ccc2oc(=O)c(/C=C(\O)c3ccccc3)nc2c1
  -1%	-9%	-12%
COc1cc(NC(=O)COC(=O)Cn2cnc3c2c(=O)n(C)c(=O)n3C)cc(OC)c1
  -7%	5%	-4%
Cc1cc(Br)ccc1NC(=O)CNC(=O)CNc1cccc([N+](=O)[O-])c1
  0%	3%	-11%
COc1ccc(NC(=O)N(C)C[C@H]2Oc3ccc(NS(=O)(=O)c4cccs4)cc3C(=O)N([C@H](C)CO)C[C@@H]2C)cc1
  5%	-11%	-8%
CCN(C(=O)COC(=O)C1CCN(S(=O)(=O)c2ccc(C)c(C)c2)CC1)C1CCCCC1
  2%	7%	-23%
COc1ccc(C(=O)NC(CCSC)C(=O)NC2CC2)cc1 (stereo not given)
  -6%	-1%	2%
NC(=O)c1ccc(NC(=O)Cc2ccc(S(=O)(=O)N3CCCCC3)cc2)cc1
  -1%	-5%	-5%
COC(=O)C1=C(c2ccc(OC)c(OC)c2)C[C@@H]2CC[C@H]1N2C(=O)N1CCOCC1
  -1%	-17%	-13%
COc1ccc(CCNC(=O)CSc2c[nH]c3ccccc23)cc1OC
  2%	-3%	-2%
CC(Oc1cccc(Br)c1)C(=O)NNC(=O)CCNC(=O)c1ccccc1Cl (stereo not given)
  -7%	0%	-17%
CCn1c(SCC(=O)Nc2sccc2C(N)=O)nnc1C1CC1
  -8%	-7%	-7%
Oc1c(Cl)cc(CN2CCOCC2)c2cccnc12
  -10%	?	-25%
CCc1ccc(-c2nnn(CC(=O)N(C3CCCC3)C3CCS(=O)(=O)C3)n2)cc1 (stereo not given)
  -2%	-14%	10%
CC(=O)Nc1ccc(OS(=O)(=O)c2cc(Cl)ccc2C)cc1
  -15%	-2%	-15%
COc1ccccc1COCC(O)CN1CCN(S(=O)(=O)c2cccc(F)c2)CC1 (stereo not given)
  -11%	-7%	-12%
COc1ccc(NC(=O)C2CCCN(C(=O)c3ccc(Cl)cc3)C2)cc1S(=O)(=O)N(C)C (stereo not given)
  -1%	-1%	?
O=C(Cn1cnc([N+](=O)[O-])n1)NC1CC1
  -3%	-10%	-8%
Cc1ccc(/C=C/C(=O)OCC(=O)NCc2ccc(Cl)cc2)o1
  -2%	4%	-12%
Cn1c(CCC(=O)OCC(=O)NCc2ccc3c(c2)OCO3)nc(=O)c2ccccc21
  -1%	-10%	-11%
COc1ccc(C(=O)Nc2ccccc2NC(=O)c2ccco2)c(OC)c1
  14%	0%	-19%
COc1ccc(NC(=O)CN(C)CC(=O)NC(=O)NC2CCCCC2)cc1
  3%	-9%	13%
Cc1cc(C)c(C(N)=O)c(Cl)n1
  1%	12%	-8%
CN(NC(=O)Nc1ccc(Cl)cc1)c1c(Cl)c(Cl)nn1C
  -5%	-1%	-20%
CCCN1C(C)C(C(=O)OCC)=CN(Cc2cccc(I)c2)S1(=O)=O (stereo not given)
  -7%	1%	4µM*
COCCCNC(=O)Cn1cnc(C(=O)Nc2ccc(C)c(C)c2)n1
  18%	7%	5%
O=C(Nc1cccc(Cl)c1)Nc1nc(-c2ccccc2)cs1
  -2%	-9%	?
CCN(CC)C(=O)[C@H]1C[C@H](CC(=O)NCCCOC)C(=O)N2CCc3c([nH]c4cc(CCC(=O)N(C)C)ccc34)[C@]12C
  -2%	-12%	-13%
CCN(Cc1ccccc1)C(=O)COC(=O)c1c(C)nsc1NC
  3%	4%	?
CC1CCN(C(=O)c2[nH]cnc2C(=O)N[C@H](C)c2ccccc2)CC1
  -6%	9%	-14%

Rewritten bar-delimited: entries from further up.
Compound | SARS PLP yeast | RE007 growth inh | StopGo reporter
CC(=O)Nc1ccc(OS(=O)(=O)c2cc(Cl)ccc2C)cc1 | -15% | -2% | -15%
COc1ccccc1COCC(O)CN1CCN(S(=O)(=O)c2cccc(F)c2)CC1 (stereo not given) | -11% | -7% | -12%
COc1ccc(NC(=O)C2CCCN(C(=O)c3ccc(Cl)cc3)C2)cc1S(=O)(=O)N(C)C (stereo not given) | -1% | -1% | ?
O=C(Cn1cnc([N+](=O)[O-])n1)NC1CC1 | -3% | -10% | -8%
Cc1ccc(/C=C/C(=O)OCC(=O)NCc2ccc(Cl)cc2)o1 | -2% | 4% | -12%
Cn1c(CCC(=O)OCC(=O)NCc2ccc3c(c2)OCO3)nc(=O)c2ccccc21 | -1% | -10% | -11%
COc1ccc(C(=O)Nc2ccccc2NC(=O)c2ccco2)c(OC)c1 | 14% | 0% | -19%
COc1ccc(NC(=O)CN(C)CC(=O)NC(=O)NC2CCCCC2)cc1 | 3% | -9% | 13%
Cc1cc(C)c(C(N)=O)c(Cl)n1 | 1% | 12% | -8%
CN(NC(=O)Nc1ccc(Cl)cc1)c1c(Cl)c(Cl)nn1C | -5% | -1% | -20%
CCCN1C(C)C(C(=O)OCC)=CN(Cc2cccc(I)c2)S1(=O)=O (stereo not given) | -7% | 1% | 4µM*
COCCCNC(=O)Cn1cnc(C(=O)Nc2ccc(C)c(C)c2)n1 | 18% | 7% | 5%
O=C(Nc1cccc(Cl)c1)Nc1nc(-c2ccccc2)cs1 | -2% | -9% | ?
CCN(CC)C(=O)[C@H]1C[C@H](CC(=O)NCCCOC)C(=O)N2CCc3c([nH]c4cc(CCC(=O)N(C)C)ccc34)[C@]12C | -2% | -12% | -13%
CCN(Cc1ccccc1)C(=O)COC(=O)c1c(C)nsc1NC | 3% | 4% | ?
CC1CCN(C(=O)c2[nH]cnc2C(=O)N[C@H](C)c2ccccc2)CC1 | -6% | 9% | -14%

(more compounds)
Under each structure – SARS PLP yeast	RE007 growth inh	StopGo reporter
COc1ccc(NC(=O)Nc2cccc3c2O[C@@H](CN(C)S(=O)(=O)c2cn(C)cn2)[C@@H](C)CN([C@H](C)CO)C3=O)cc1
  4%	7%	-15%
Cc1[nH]c2ccccc2c1CCN(Cc1cccs1)C(=S)NC(C)(C)C
  5%	-4%	31%[activator]
CCN1C(=O)[C@H]2[C@@H](c3ccc(-c4ccc(Cl)c(Cl)c4)cc3)N[C@@](CC(C)C)(C(=O)OC)[C@H]2C1=O
  6%	31%	?
CCc1nnc(SCC(=O)Nc2ccc3ccccc3c2)n1N
  0%	17%	23%
C[C@@H]1[C@H]2[C@@H]3CC[C@@H](C3)[C@H]2CN[C@H]1c1cn(Cc2ccccc2)c2ccccc12
  -1%	1%	0%
S=C(NCCCN1CCOCC1)Nc1cccc(-c2nnc3n2CCCCC3)c1
  1%	3%	-4%
Cc1csc(SCC(=O)NC2CCCC2)n1
  -9%	-4%	-4%
COc1ccc(-c2sc3cc4c(cc3c2-c2ccc(OCCN3CCOCC3)cc2)OCO4)cc1
  -5%	10%	-22%
COC(=O)c1ccc(CNC(=O)Cn2cnc3c(NCc4ccccc4)ncnc32)cc1
  ?	2%[18.4 µM]	-22%
Cc1cc(Br)c(NC(=O)COC(=O)C2CCCCC2)c(Br)c1
  -8%	30%	-14%
Cc1nn(Cc2ccccc2)c(C)c1C(=O)NCCCN1CCCC1=O
  8%	-12%	-11%
Nc1ccn(CC(=O)NCCc2ccccn2)c(=O)n1
  2%	-1%	-13%
O=C(Cc1ccc(-n2c(=O)c3ccccc3n(Cc3ccccc3Cl)c2=O)cc1)NCC1CCCO1 (stereo not given)
  0%	-5%	-6%
COCCNc1nnc(SCC(=O)Nc2cc(C)on2)s1
  2%	-1%	2%
COC(=O)C1=C(c2c(C)noc2C)C[C@@H]2CC[C@H]1N2C(=O)NCc1ccc(F)cc1
  3%	21%	-8%
COC(=O)[C@]1(C)N[C@H](CN(C)C(=O)C2CCCCC2)[C@@H]2C(=O)N(Cc3ccccc3)C(=O)[C@@H]21
  4%	-3%	-5%
N#CC[N+]1(CCCNP2(=O)C=C(c3ccccc3)OC(c3ccccc3)=C2)CCOCC1
  0%	-2%	-6%
Cc1cccnc1NC(=O)CNC(=O)c1sc2ccccc2c1Cl
  13%	-2%	32%[activator]
Cc1ccc(NC(=O)CN(C)C(=O)COC(=O)[C@@H](NC(=O)c2ccccc2F)C(C)C)cc1
  -1%	5%	-6%
COC(=O)[C@@H](Cc1ccccc1)NC(=O)Cn1cnc2c(SC)nc(N)nc21
  3%	-9%	0%

Quoted at random: three records from the list
Under each structure – SARS PLP yeast	RE007 growth inh	StopGo reporter
Cc1ccc2c(c1)C1C[N+](C)(CC(=O)c3ccc(Cl)cc3Cl)CCC1N2C(=O)c1ccc(F)cc1 (stereo not given)
  -1%	5%	38%[activator]
N#CC[N+]1(CCCNP2(=O)C=C(c3ccccc3)OC(c3ccccc3)=C2)CCOCC1
  0%	-2%	-6%
CC(=O)c1ccc(NC(=S)NCc2ccc(Cl)cc2Cl)cc1
  0%	4%	38%[activator]

The listing continues:
Under each structure – SARS PLP yeast	RE007 growth inh	StopGo reporter
COc1ccc(Cl)cc1NC(=O)CN(C)C(=O)c1ccc(-n2nc(C)cc2C)cc1
  -6%	7%	?
Cc1ccc(S(=O)(=O)N(C)C[C@@H]2Oc3ccc(NC(=O)CCC(F)(F)F)cc3CC(=O)N([C@@H](C)CO)C[C@@H]2C)cc1
  -1%	-14%	-21%
COc1ccc(NC(=O)c2cc(-c3ccccc3)nc3c2cnn3C(C)C)c(OC)c1
  -2%	1%	?
Cc1ccc(S(=O)(=O)N2[C@@H](c3ccc(Cl)cc3)C(C(=O)O)=CC[C@H]2c2cccc(Cl)c2)cc1
  -2%	4%	-18%
O=C(/C=C/c1cccc(F)c1)OCC(=O)N1CCc2ccccc21
  -1%	9%	-1%
COc1ccc(CCn2c(C)cc(C(=O)CCl)c2C)cc1OC
  10µM*	2%	20µM*
O=C(C[C@@H]1C/C=C\CCC(=O)OC[C@@H]2CCCN2C1=O)NCCO
  9%	3%	-2%
O=C1C=C(c2ccc(OC(F)(F)F)cc2)C[C@@H](c2ccc(Cl)cc2)C1
  -5%	3%	-9%
COc1ccc(-c2cn(CCC(=O)NCc3ccc(C)cc3)c(CCN)n2)cc1
  -15%	-9%	9%
COC(=O)[C@]1(Cc2ccccc2)N[C@H](CN(C)C(=O)Nc2ccc(Cl)cc2)[C@@H]2C(=O)N(C)C(=O)[C@@H]21
  -1%	2%	-1%
CSCCC(NC(=O)COc1ccccc1)C(=O)N1CC(C)OC(C)C1 (stereo not given)
  -5%	-5%	-11%
O=C(Nc1nc(-c2ccccn2)cs1)c1ccc(-c2ccccc2F)o1
  -22%	-22%	12%
